gsp ag: gsp mutant agonism. gsp mutant cells, cAMP HTRF, 30 min; control for the full effect not named in the record. Potency, µM (series often up to 76.9 µM), without a hit: at the top dose activation (cAMP increase), usual class: activators. AID 624287. 0.13% of 340,000 active; active = well fitted activation curve with a large enough effect; inconclusive = small, poorly fitted or top-dose-only effect, or another doubt; inactive = no such curve, though single readings can be large or run the other way; cell line not stated here;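 also: phosphodiesterase inhibitor Ro 20-1724 added with compounds to block cAMP breakdown; potency is read from the fitted curve at half-maximal effect; nearly all actives have a fitted effect of over 60% in size; about a fifth of the inactives were tested at one dose only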
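Cells stably selected in G418 were plated at 2000/well, grown 16-24 hr, then given compounds in DMSO with the PDE inhibitor […] (300 uM solution added) for 30 min at 37C; cAMP was read by HTRF.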
Menin MLL FP FL: inhibitors of human menin-MLL interaction, wild-type MLL peptide | Fluorescence polarization, fluorescein-MLL peptide displacement from menin | 290,000 tested, under 10 active | FP activity change, % at 61.4 µM; inconclusive = falling polarisation curve, or a change in total fluorescence; inactive = total fluorescence flat and polarisation flat or rising; no compound was filed as active; the % refers to the polarisation; negative = inhibition;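 also: % of control where 0% means no effect; inhibitors lower the polarisation; unlabelled MLL peptide was the positive control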
gsp antag: antagonists of gsp mutant (McCune-Albright syndrome) | AID 624288 | 0.4% of 340,000 active | Potency, µM (highest dose often 76.9 µM), for the others: at the top dose activity change, negative = inhibition, most hits filed as inhibitors | gsp-mutant cells, cAMP HTRF, 30 min; control for the full effect not named in the record; active = falling curve of any shape with a large fitted effect; inconclusive = falling curve, mostly with a smaller effect; inactive = flat or rising curve; cell line not stated here;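 also: intracellular cAMP measured with PDE inhibitor Ro 20-1724 present during compound exposure; potency is read from the fitted curve at half-maximal effect; % is scaled to controls: 0 for no effect and ±100 for the full control effect; nearly all actives have a fitted effect of over 65% in size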
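Measurement of cellular cAMP by homogeneous time-resolved fluorescence following a 30 min compound exposure at 37C. The PDE inhibitor […] was present throughout; the assay buffer was DPBS with 0.05% BSA and 0.005% Tween 20.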
CtBP-E1A blk: CtBP/E1A binding inhibition; activity change, % (test concentration not listed); AlphaScreen GST-E1A/His-CtBP binding, 1536-well; hits give low values; control for the full effect not named in the record; 0.49% of 340,000 active; AID 651724; in the data active means activity change below about -65%; inconclusive means about -30% to -65%; inactive means above about -30%; also: % is scaled to controls: 0 for no effect and ±100 for the full control effect; compound concentration not given in the record
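GST-E1A and His-tagged CtBP (125 nM each as 5X stock) were preincubated with pin-transferred compound for 2 h at 37 °C in the dark, then glutathione donor and nickel acceptor beads were added for 1 h before AlphaScreen reading.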
TRPV1 PAM: potentiators of human vanilloid receptor 1 (TRPV1); 0.02% of 320,000 active; AID 540277; potentiation, % at 8.33 µM; Q8NER1; TRPV1-expressing cells, Fluo-8 calcium influx, capsaicin EC20 potentiation; host cell line not named in the record; control for the full effect not named in the record; active means potentiation above 80%; inconclusive means 30% to 80%; inactive means below 30%; also: 0% is about no effect
Target sequence (Q8NER1 whole entry, looked up): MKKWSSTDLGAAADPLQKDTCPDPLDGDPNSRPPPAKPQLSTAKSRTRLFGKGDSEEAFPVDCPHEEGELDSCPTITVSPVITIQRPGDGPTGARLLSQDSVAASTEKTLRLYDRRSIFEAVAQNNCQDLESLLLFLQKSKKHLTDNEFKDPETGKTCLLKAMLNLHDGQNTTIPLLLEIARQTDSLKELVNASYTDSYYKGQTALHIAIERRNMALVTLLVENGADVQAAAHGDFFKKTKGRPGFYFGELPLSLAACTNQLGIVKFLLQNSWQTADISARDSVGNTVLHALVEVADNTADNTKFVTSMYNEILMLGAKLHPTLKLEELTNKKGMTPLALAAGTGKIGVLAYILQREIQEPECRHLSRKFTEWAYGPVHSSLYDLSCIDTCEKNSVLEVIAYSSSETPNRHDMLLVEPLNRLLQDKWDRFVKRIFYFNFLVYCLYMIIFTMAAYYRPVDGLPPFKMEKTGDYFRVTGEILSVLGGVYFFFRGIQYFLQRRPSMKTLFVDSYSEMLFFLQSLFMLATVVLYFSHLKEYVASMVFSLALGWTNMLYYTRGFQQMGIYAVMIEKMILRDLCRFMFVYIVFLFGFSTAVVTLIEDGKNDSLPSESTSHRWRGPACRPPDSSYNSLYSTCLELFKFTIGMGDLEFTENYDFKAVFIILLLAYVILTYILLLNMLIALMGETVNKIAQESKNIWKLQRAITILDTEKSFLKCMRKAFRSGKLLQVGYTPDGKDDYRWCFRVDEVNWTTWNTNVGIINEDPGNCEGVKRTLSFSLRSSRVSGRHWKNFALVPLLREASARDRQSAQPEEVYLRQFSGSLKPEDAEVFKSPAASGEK
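Fluo-8 calcium influx in TRPV1-expressing cells, kinetic read (ex 480/em 520 nm). Compound added and read 3 min for agonist activity, followed by capsaicin at EC20 final and 2 min further read for enhancement.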
ClpP mod: qHTS Assay for Activators of ClpP; purified B. subtilis ClpP, FRET peptide cleavage, 20 min; Potency, µM (series often up to 57.5 µM), without a hit: at the top dose activity change, negative = active; 1.9% of 340,000 active; AID 651965, 2013; active = well fitted falling curve with a large enough effect; inconclusive = small, poorly fitted or top-dose-only effect; inactive = no such curve, though single readings can be large or run the other way; also: potency is read from the fitted curve at half-maximal effect; the source files actives as falling curves though it sought activators and does not explain the sign; nearly all actives have a fitted effect of over 65% in size; many hits overshoot -100%
Target sequence (P80244 whole entry, looked up): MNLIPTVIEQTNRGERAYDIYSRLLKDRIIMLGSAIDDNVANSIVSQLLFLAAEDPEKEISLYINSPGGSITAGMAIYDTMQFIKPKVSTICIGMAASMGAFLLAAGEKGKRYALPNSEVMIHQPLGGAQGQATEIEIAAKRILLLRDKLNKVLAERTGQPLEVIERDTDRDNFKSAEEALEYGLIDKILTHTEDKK
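Purified B. subtilis ClpP, 10 microg/mL final in Tris/HCl pH8 with KCl, BSA, glycerol and Tween-20, cleaved an Abz/nitrotyrosine-quenched decapeptide. Fluorescence (ex 320, em 430) was read at 0 and 20 min at room temperature. Delta was normalized to 5.8 microM ADEP and DMSO/no-enzyme controls.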
Sfp PPTase inh: Sfp phosphopantetheinyl transferase inhibition; Q9F4F7; Biochemical Sfp PPTase activity, qHTS; Potency, µM, for inactives: max response, negative = inhibition, most hits filed as inhibitors; 3.5% of 310,000 active; AID 1490; active = well fitted inhibition curve with a large enough effect; inconclusive = small, poorly fitted or top-dose-only effect, or another doubt; inactive = no such curve, though single readings can be large or run the other way;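 also: the enzyme is Sfp with the accession as filed and its product quenches rhodamine fluorescence; potency is read from the fitted curve at half-maximal effect; 0% = enzyme reaction without inhibitor and -100% = no enzyme wells; top concentration of the series not given in the record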
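Step 1, compound plus 15 nM Sfp-PPTase, 15 min, room temperature. Step 2, add rhodamine-CoA (5 uM) and BHQ-2-YbbR (12.5 uM). Step 3, read 525/598 nm fluorescence at 0 and 30 min.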
Active calls of the source: *; ? = inconclusive; · = not tested or not shown; & = joins results of further samples; [ ] = dose if it differs, or a comment.

SMILES	gsp ag	Menin MLL FP FL	gsp antag	CtBP-E1A blk	TRPV1 PAM	ClpP mod	Sfp PPTase inh
Nc1nc(SCC(=O)NCC2CCCO2)n[nH]1 (stereo not given)	6%	2.3	7%	-2	-17	-2.6%	25%
CCOC(=O)c1[nH]c2ccc(OC)cc2c1NC(=O)c1ccc(OC)c(OC)c1	-1%	-0.4	7%	2	9	-3.1%	-6%
S=c1[nH]nc(CCc2ccccc2)n1-c1ccccc1	-13%	1.4	-1%	3	8	-1.3%	0%
O=C1C2C3C=CC(C4CC34)C2C(=O)N1CCc1ccccc1 (stereo not given)	1%	-1.5	-5%	-4	-6	0.1%	-8%
COCC(=O)OCC(=O)Nc1cc(C(C)(C)C)nn1-c1ccccc1	-34%[inhibitor]	0.7	15%	7	0	0.6%	4%
COc1ccc(N2CCN(CCC(N)=O)CC2)cc1	8%	3.7	9%	0	-3	-9.3%	9%
O=C(Cc1ccccc1)Nc1ccc(N2CCN(Cc3ccccc3F)CC2)cc1	17%	0.6	5%	-5	6	2.9%	17%
CNC(=O)c1ccc(CNC(=O)OCC(F)(F)F)cc1	19%	3.4	-3%	3	1	-0.1%	-14%
CCC1CSC(Nc2ccc(C(=O)/C=C/c3ccc(OC)c(OC)c3)cc2)=N1 (stereo not given)	-1%	13	14%	2	4	-1.8%	-4%
CCN(CC)CC(=O)Nc1sc(C)cc1C(=O)c1ccc(C)cc1	0%[15.4 µM]	1.4	-28%	-8	-16	1.1%	-6%
Brc1cccc(CSc2nnc(-c3ccncc3)o2)c1	-1%[15.4 µM]	0.7	1%	13	-4	-1.8%	9%
COc1ccc(N2CCN(C(=O)[C@H](C)NC(=O)c3ccccc3Cl)CC2)cc1	14%	1.5	4%	-15	8	·	16%
Cc1cc(C)nc(N2N=C(C(F)(F)F)CC2=O)n1	-12%	1.6	1%	·	10	0.0%	-16%
CC(=O)N/C(=N\OCc1ccccc1Cl)c1nonc1NC(C)=O	-5%[15.4 µM]	3.3	1%	4	22	0.2%	19%
CC1CCc2sc(C(=O)N(C)CC(=O)Nc3cccc(F)c3)cc2C1 (stereo not given)	-16%	·	-10%	6	-14	0.3%	18%
CCCCN(CCCC)CCC(O)c1cc2c(Cl)cc(Cl)cc2c2cc(C(F)(F)F)ccc12 (stereo not given)	·	1.6[24.8 µM]	3%	-1	-6	-7.3%	4%
Cc1ccc(Nc2c(-c3ccc(N4CCOCC4)cc3)nc3ncccn23)cc1C	?	14	-7%	8	-1	-2.2%&2.3%	9%
COc1ccc(N2CCN(C(=O)c3ccc4c(c3)CC(c3ccccc3)OC4=O)CC2)cc1 (stereo not given)	21%[15.4 µM]	·	-22%	0	-4	·	·
CN(c1ccccc1C(=O)N1CCc2ccccc2C1)S(C)(=O)=O	-32%[inhibitor]	0.0	2%	15	-14	-1.6%	2%
O=S(=O)(c1ccccc1)c1cnc2ccccc2c1	-4%	·	0%	3	-27	-1.5%	·
CCN(Cc1ccccc1)C(=O)c1c[nH]c2ccc(S(=O)(=O)N(C)CCC#N)cc2c1=O	26%	0.2	13%	-10	-1	32µM*	4%
Cc1cc(N)n(-c2ncnc3scc(-c4ccccc4)c23)n1	19%	-1.5	10%	0	-1	0.7%	2%
O=C(/C=C/c1c(F)cccc1Cl)N1CCc2ccccc2C1	-27%	-3.8	-8%	17	-15	·	4%
O=C(COc1nsnc1N1CCOCC1)Nc1cccc(Cl)c1	-33%[inhibitor]	0.9	-10%	-2	-6	2.2%	-5%
COc1cccc(CN2CCN(C3CCN(c4cccc(C)c4C)CC3)CC2CCO)c1 (stereo not given)	18%	-7.7	0%	-6	-3	-1.4%	6%

No new results follow: entries from further up.
SMILES	gsp ag	Menin MLL FP FL	gsp antag	CtBP-E1A blk	TRPV1 PAM	ClpP mod	Sfp PPTase inh
Nc1nc(SCC(=O)NCC2CCCO2)n[nH]1 (stereo not given)	6%	2.3	7%	-2	-17	-2.6%	25%
CCOC(=O)c1[nH]c2ccc(OC)cc2c1NC(=O)c1ccc(OC)c(OC)c1	-1%	-0.4	7%	2	9	-3.1%	-6%
S=c1[nH]nc(CCc2ccccc2)n1-c1ccccc1	-13%	1.4	-1%	3	8	-1.3%	0%
O=C1C2C3C=CC(C4CC34)C2C(=O)N1CCc1ccccc1 (stereo not given)	1%	-1.5	-5%	-4	-6	0.1%	-8%
COCC(=O)OCC(=O)Nc1cc(C(C)(C)C)nn1-c1ccccc1	-34%[inhibitor]	0.7	15%	7	0	0.6%	4%
COc1ccc(N2CCN(CCC(N)=O)CC2)cc1	8%	3.7	9%	0	-3	-9.3%	9%
O=C(Cc1ccccc1)Nc1ccc(N2CCN(Cc3ccccc3F)CC2)cc1	17%	0.6	5%	-5	6	2.9%	17%
CNC(=O)c1ccc(CNC(=O)OCC(F)(F)F)cc1	19%	3.4	-3%	3	1	-0.1%	-14%
CCC1CSC(Nc2ccc(C(=O)/C=C/c3ccc(OC)c(OC)c3)cc2)=N1 (stereo not given)	-1%	13	14%	2	4	-1.8%	-4%

New compounds follow.
SMILES	gsp ag	Menin MLL FP FL	gsp antag	CtBP-E1A blk	TRPV1 PAM	ClpP mod	Sfp PPTase inh
N#C/C(=C\c1cccc(OCC(=O)O)c1)c1nc2ccccc2[nH]1	11%	10	-6%	3	-5	-6.6%	1%
COc1ccc(CC(=O)NNc2ncnc3c2cnn3C)cc1	2%	-5.8	5%	8	-2	0.3%	8%
CC1(C)Cc2c(c(-c3ccccc3)nc3[nH][nH]c(=O)c23)CO1	3%	-0.8	0%[15.4 µM]	-7	-3	-1.7%	13%
COc1ccc(OC)c(C2=NOC(C(=O)NCCN3CCOCC3)C2)c1 (stereo not given)	6%	2.2	1%	-1	10	-29%	3%
COC(=O)c1ccc(NC(=O)c2ccccc2)o1	30%	0.9	-13%	5	18	-0.4%	8%
CCCCOc1ccc([N+](=O)[O-])cc1C(=O)O	6%	-2.5	1%	1	2	·	21%
COc1ccc(/C=C(\NC(=O)c2ccc(OC)cc2)C(=O)Nc2cccc(C(=O)O)c2)cc1	-61%[inhibitor]	-2.2	8%	5	2	·	3%
O=[N+]([O-])c1c(NCc2ccco2)ncnc1NCc1ccco1	0%	·	10%	-23	·	·	·
O=C(CCCN1C(=O)/C(=C\c2cccs2)SC1=S)NNC(=O)c1ccncc1	-18%[15.4 µM]	-3.1	6%	-26	-7	·	19%
Cn1c(=O)c2c(nc(Cl)n2CC(=O)N2CCCCC2)n(C)c1=O	1%[15.4 µM]	1.3	8%	-1	15	·	8%
CCC(C)N(C(=O)CSc1nnc(-c2ccco2)n1C)C1CCS(=O)(=O)C1 (stereo not given)	28%[15.4 µM]	·	9%	2	0	·	·
O=C(CCN1C(=O)C2C3C=CC(C3)C2C1=O)NCCc1ccccc1Cl (stereo not given)	?	1.7	5%	6	-21	-1.1%	18%
Cc1ccccc1OCCCC(=O)NCc1ccco1	-14%	5.0	13%	55	3	1.7%	17%
Cc1ccc(S(=O)(=O)Nc2nnc(C(C)(C)C)s2)cc1	?	0.0	-5%	·	21	0.1%	-56%
COc1ccc(C(=O)Nc2ccc(-c3n[nH]c(=S)o3)cc2)cc1	?	-6.3	-26%	-1	-2	?	-16%
O=C(Cc1cccc(C(F)(F)F)c1)Nc1ccccc1N1CCCC1	2%	3.4	-5%	-19	-9	-3.0%	4%
O=S(=O)(c1ccccc1)N1CCC(Oc2ccc(-n3cnnn3)cc2)CC1	5%	·	-7%	3	11	·	-1%
C=C(C(=O)Nc1ccccc1)c1ccc(C)cc1	-26%	·	1%	-18	?	-3.4%	·
C[C@@H]1CN([C@H](C)CO)C(=O)c2cc(Br)cnc2O[C@H]1CN(C)C	1%	·	·	2	·	0.6%	·
CCCN(CCC)CC(O)CN(c1ccccc1)S(=O)(=O)c1ccc(C)cc1 (stereo not given)	-28%	4.6	7%	-8	13	-1.9%	11%
O=C(CN1CCCCC1)Nc1ccc(N2CCCCCC2)cc1	?	0.1	-5%	-22	-7	·	-21%
COc1ccc(C2CC(C(F)(F)F)n3nc(C(=O)Nc4c(C)n(C)n(-c5ccccc5)c4=O)c(Cl)c3N2)cc1 (stereo not given)	·	6.4	·	·	2	·	6%
Cc1cc2c(C)nc(N/N=C/c3ccc([N+](=O)[O-])cc3)nc2o1	8%	55[activator]	3%	-1	-7	1.2%	-13%
C=CCn1c(Cc2ccc(OC(C)C)c(Cl)c2)nnc1SCC(N)=O	4%	-2.2	-2%[15.4 µM]	6	-11	-1.5%	3%
COCCCNC(=O)c1cc2cc3cc(OC)ccc3nc2o1	10%	-1.0	-16%	·	-13	3.4%	4%

Next part.
SMILES	gsp ag	Menin MLL FP FL	gsp antag	CtBP-E1A blk	TRPV1 PAM	ClpP mod	Sfp PPTase inh
O=C(Cc1ccccc1)NCC(=O)N1CCC2(CC1)NCCc1[nH]cnc12	0%	·	14%	·	5	0.0%	3%
CC1CCN(C(=O)COC(=O)Cn2cnc3c2c(=O)n(C)c(=O)n3C)CC1	?	·	-8%	-10	6	-2.9%	·
COc1ccc(N(CC(=O)Nc2ccc(S(=O)(=O)N3CCCCC3)cc2)S(C)(=O)=O)cc1OC	-23%	0.3	-21%	-2	7	-1.0%	1%
CCCCCCCCC(=O)N/N=C(\C)c1ccc(O)cc1O	-21%	-0.3	3%	-8	-1	32µM*	-2%
O=S(=O)(c1ccc(Cl)cc1)N1CCCN(c2nc3ccc(Cl)cc3s2)CC1	8%[15.4 µM]	9.2	14%	5	-25	-1.8%	-7%
Cc1cc(NC(=S)NC(=O)CC(C)C)ccc1Br	2%	3.1	3%	7	-6	-0.8%	1%
Cn1nc(CSc2ccccc2)c(C=O)c1Cl	9%[15.4 µM]	0.7	-8%	1	16	·	12%
COc1cccc(C(=O)CN2C(=O)C(C)(C)Oc3ccc(C(=O)N4CCOCC4)cc32)c1	-7%[15.4 µM]	0.3	-9%	0	-7	-0.9%	16%
COc1ccc(C(=O)n2nnc3ccccc32)cc1Br	3%	0.2	3%	4	23	-1.5%	12%

Bioassay records deposited in PubChem BioAssay by National Center for Advancing Translational Sciences (NCATS).
